Bioassay records: PubChem BioAssay, several laboratories
B2AR ag: beta2AR agonists driving receptor internalization, primary screen, cell-based, FAP fluorogen, flow cytometry. Beta-2 adrenergic receptor (Homo sapiens), P07550. hit rate 0.43% among 340,000. AID 504454, 2011. response, % (no concentration beside the values). Am2.2-beta2AR cells; reference of the scale not given here;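 active = response above a set limit, near 3 SD of response in nonfluorescent compounds, cut at about 42% in these data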;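 note: stock transfer was 100 nL into about 11 µL; a reference agonist was the positive control; negative values mostly stem from fluorescent compounds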
Vif A3G: inhibitors of Vif binding to APOBEC3G peptide, primary screen, biochemical, TR-FRET, GST-Vif 1-94, biotin-A3G peptide, dose response retest (AID 1117319); Virion infectivity factor (Human immunodeficiency virus type 1 group M subtype B (isolate …; TR-FRET GST-Vif / biotin-A3G peptide binding; higher % means a stronger effect; test concentration not given here; strong numbers were not always called active; one-dose inhibition, %; IC50 in µM for titrated hits; hit rate 0.57% among 260,000;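 active = above the screen mean plus three standard deviations and confirmed in dose response; inconclusive = results disagree or hit not tested in dose response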;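 note: Vif residues 1-94 fused to GST binding biotinylated APOBEC3G peptide 110-148; 0% = full assay without inhibitor and 100% = GST in place of GST-Vif; retest series ran down from 100 µM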
UCH37 inh: inhibitors of human UCH37 deubiquitinase, primary screen, biochemical, Ub-AMC cleavage, fluorescence; inhibition, % (test concentration not listed); Ubiquitin carboxyl-terminal hydrolase isozyme L5 (Homo sapiens), Q9Y5K5; purified proteasome/UCH37; hit rate 0.33% among 330,000;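 active = mean of two replicates above 20%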;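 note: 0% = compound-free wells with enzyme and 100% = wells lacking proteasome; stock transfer was 100 nL into about 20 µL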
Target sequence (Q9Y5K5 whole entry, looked up): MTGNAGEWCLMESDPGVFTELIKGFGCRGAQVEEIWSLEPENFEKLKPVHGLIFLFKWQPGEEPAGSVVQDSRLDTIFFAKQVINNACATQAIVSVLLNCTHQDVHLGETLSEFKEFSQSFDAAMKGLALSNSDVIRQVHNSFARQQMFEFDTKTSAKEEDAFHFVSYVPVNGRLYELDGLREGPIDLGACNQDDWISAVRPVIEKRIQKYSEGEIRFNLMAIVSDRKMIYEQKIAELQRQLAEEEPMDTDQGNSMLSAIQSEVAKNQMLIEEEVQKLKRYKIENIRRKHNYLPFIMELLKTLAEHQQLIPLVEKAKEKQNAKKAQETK
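System: Proteasome-associated human UCH37 deubiquitinase; Input: 0.15 nM proteasome in added enzyme buffer; Also added: Ub-AMC substrate from 1 µM stock; Incubation: 30 min compound-proteasome preincubation then 25 min substrate reaction, room temperature; Detection: fluorescence, ex 355 nm, em 460 nm; Read-out: % inhibition of Ub-AMC cleavage fluorescence; Benchmarks: no-proteasome and no-compound wells.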
A1 inh: caspase 3/7 activation in MEF A1-2A-BIM cells, primary screen, A1 inhibitor project, cell-based, luminescence, HTS. Caspase-Glo 3/7 luminescence, 3 h; percent of clofoctol response, vehicle zero. caspase activation, % (no concentration beside the values). hit rate 0.066% among 330,000. AID 2462, 2010;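 active = over half of replicate activation scores above 10%, or exactly half above 10 with the replicate mean above 10; inconclusive = replicate mean below 10 yet half the replicates above 10; inactive = over half of replicates below 10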;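 note: wells of about 30 µL received 50 nL stock; many hits fall short of the cut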
HNF4A DNA FP: change in binding of human HNF4A to DNA, primary screen, biochemical, fluorescence polarization, FITC-DNA; Hepatocyte nuclear factor 4-alpha (Homo sapiens), P41235; 1 h; activity change, % at 10 µM; hit rate 0.3% among 360,000; AID 1224865, 2016; in the data active = activity change above about 30%, passing the limit was not always enough;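 note: controls were the assay level and a saturating level of protein; the project sought stronger binding though the title names inhibitors; some compounds called inactive have numbers as strong as hits; positive values seem to mean higher polarization but the record does not say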
Target sequence (P41235 whole entry, looked up): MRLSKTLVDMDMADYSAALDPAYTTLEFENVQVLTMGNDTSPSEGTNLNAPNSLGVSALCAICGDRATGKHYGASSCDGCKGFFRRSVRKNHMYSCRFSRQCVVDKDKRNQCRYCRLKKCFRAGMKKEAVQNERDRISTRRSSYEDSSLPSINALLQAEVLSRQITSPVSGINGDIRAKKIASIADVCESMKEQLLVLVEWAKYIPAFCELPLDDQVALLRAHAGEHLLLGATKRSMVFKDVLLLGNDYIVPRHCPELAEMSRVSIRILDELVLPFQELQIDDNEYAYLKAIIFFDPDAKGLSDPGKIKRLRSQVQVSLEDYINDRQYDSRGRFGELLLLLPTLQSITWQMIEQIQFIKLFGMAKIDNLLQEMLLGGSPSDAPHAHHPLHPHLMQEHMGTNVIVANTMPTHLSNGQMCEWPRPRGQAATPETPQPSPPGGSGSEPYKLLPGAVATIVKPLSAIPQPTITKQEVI
E coli growth: E. coli growth inhibition, primary screen, OD600 | hit rate 0.21% among 330,000 | OD600 absorbance (no concentration beside the values) | Escherichia coli growth, 23 h; active compounds read low;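 active = OD600 absorbance below the run mean of sample wells minus 3.6 SD, in any replicate, cut at about 0.56 in these data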;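 note: stock transfer was 300 nL into about 60 µL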
LANA-H2A inh: blockers of LANA interaction with H2A/H2B – biochemical, FP readout, HTS, primary screen; Protein LANA1 (Human herpesvirus 8 type P (isolate GK18)), Q9QR71; cell-free LANA-H2A/H2B peptide, fluorescence polarization; inhibition, % (concentration not given with the values); hit rate 0.6% among 320,000; AID 2629, 2010; in the data active = inhibition mostly above about 10%, no sharp cut-off; inactive = mostly below about 6.7%;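 note: stock transfer was 7.5 nL into about 10 µL; 0% = median of vehicle wells and 100% = median of positive control wells; one replicate is shown; the record names a cut of 25% in any replicate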
* hit, by the source's call; i = inactive; u = inconclusive; x = no result given.

SMILES | B2AR ag | Vif A3G | UCH37 inh | A1 inh | HNF4A DNA FP | E coli growth | LANA-H2A inh
CC(=O)c1ccc(S(=O)(=O)Nc2ccc(C(=O)NCC(c3cccs3)N3CCOCC3)cc2)cc1 (stereo not drawn) | 2 | 4% | 4.6 | 0.8 | -1.6 | 0.67 | -1.3
CCOC(=O)c1sc(S(C)(=O)=O)c2c1CCc1conc1-2 | -2 | u | -6.4 | -0.4 | -1.9 | 0.71 | -7.2
CCC1(C)Cc2ccccc2-c2nc(NCCCO)n(-c3ccccc3)c(=O)c21 (stereo not drawn) | -1 | -4% | i | 0.5 | 3.4 | 0.68 | 2.7
CC(=O)Nc1nnc(CCS(=O)(=O)c2ccc(C)cc2)s1 | 0 | x | 0.6 | 0.2 | 0.0 | 0.67 | 1.1
Cc1[nH]c2ccccc2c1C(=O)C(=O)NCC1CCCO1 (stereo not drawn) | -5 | -4% | 5.5 | 0.8 | 1.4 | 0.67 | -8.0
O=C(NCCc1cccc(C(F)(F)F)c1)C1CCC(=O)N(Cc2ccc(Cl)cc2)C1 (stereo not drawn) | -8 | x | 3.6 | -1.0 | -4.3 | 0.68 | 1.7
COCCNC(=S)NCc1ccc2[nH]c3c(c2c1)CCCC3 | 0 | 3% | 3.8 | -0.2 | 0.4 | 0.76 | -2.9
O=C(CSCc1ccc(Br)cc1)Nc1ccc(S(=O)(=O)N2CCCCCC2)cc1 | 11 | 0% | 4.1 | -0.3 | -1.7 | 0.62 | -1.5
Cc1[nH]c2ccccc2c1SCCNC(=O)c1ccc(S(=O)(=O)N2CCCC2)cc1 | -4 | -2% | 3.0 | -0.8 | 4.2 | 0.78 | 1.4
CC(C)Nc1oc(Cc2cccc3ccccc23)nc1C#N | 11 | 0% | 2.5 | -0.7 | 5.8 | 0.66 | 4.6
CNC(=O)/C(C#N)=C/c1c(N(Cc2ccccc2)Cc2ccccc2)nc2ccccn2c1=O | -8 | x | 0.6 | -1.3 | -1.1 | 0.71 | x
O=C(Oc1cc2oc(=O)cc(-c3ccccc3)c2cc1Cl)C1CCCCC1 | 1 | -2% | -9.4 | -0.5 | 0.4 | 0.75 | 1.0
CCc1ccc(N(CC(=O)NC2CCCC2)C(=O)CCC(=O)Nc2cc(C)on2)cc1 | -2 | x | x | 0.5 | 0.5 | x | 1.4
Cc1ccc(CNC(=O)CSc2nc3ccccc3[nH]2)cc1 | -6 | x | 3.5 | 2.2 | -1.1 | 0.7 | 5.4
CC(C)CNS(=O)(=O)c1ccc(CCC(=O)NCCC2=CCCCC2)cc1 | 5 | 4% | 7.1 | -0.1 | 2.9 | 0.68 | 2.8
COc1cc(NC(=O)Cc2ccc(F)cc2)cc(OC)c1OC | -5 | -4% | 2.5 | -0.9 | -1.4 | 0.7 | -3.4
O=C(Cc1cccc2ccccc12)Nc1cc(Cl)ccc1C(=O)O | -4 | x | x | 1.2 | -0.8 | x | -0.4
O=C1NC(=S)NC(=O)C1=Cc1ccccc1C(=O)O | -3 | -5% | 3.8 | x | 6.1 | 0.69 | x
Cc1c(C(=O)OCCOC(C)C)[nH]c2c1C(=O)CC(C)(C)C2 | -7 | -8% | 2.8 | 0.3 | 1.9 | 0.75 | -1.9
CC1(OC(=O)C2CCCC2)C(=O)C=C2C=C(c3ccsc3)N(Cc3ccc4c(c3)OCO4)C=C2C1=O (stereo not drawn) | 1 | -1% | 1.3 | -0.3 | 5.6 | 0.68 | 4.1
O=c1[nH]c(CSc2cccc[n+]2[O-])nc2ccccc12 | 15 | 2% | x | 0.2 | 1.5 | x | -1.3
COc1cccc(/C=C2\SC(=S)N(CCC(=O)NC3C=CS(=O)(=O)C3)C2=O)c1 (stereo not drawn) | 7 | x | 9.3 | 0.7 | 1.6 | 0.7 | 1.8
CCOc1cc(C(=O)Nc2ccccc2N2CCN(S(C)(=O)=O)CC2)cc(OCC)c1OCC | 3 | -4% | -0.7 | -0.3 | -2.1 | 0.71 | 4.1
Cn1nnnc1SCC(=O)c1ccco1 | -1 | 1% | 2.4 | -0.5 | 2.1 | 0.69 | -1.5
CC(=O)c1ccc(S(=O)(=O)N2CCCC(N(C)CCc3ccccc3)C2)cc1 (stereo not drawn) | 6 | x | 4.0 | 0.3 | -6.1 | 0.72 | 0.9

Full records, looked up by structure.
CC(=O)Nc1nnc(CCS(=O)(=O)c2ccc(C)cc2)s1 is listed with B2AR ag: 0; Vif A3G: x; UCH37 inh: 0.6; A1 inh: 0.2; HNF4A DNA FP: 0.0; E coli growth: 0.67; LANA-H2A inh: 1.1
Cc1ccc(CNC(=O)CSc2nc3ccccc3[nH]2)cc1 is listed with B2AR ag: -6; Vif A3G: x; UCH37 inh: 3.5; A1 inh: 2.2; HNF4A DNA FP: -1.1; E coli growth: 0.7; LANA-H2A inh: 5.4

The list goes on.
SMILES | B2AR ag | Vif A3G | UCH37 inh | A1 inh | HNF4A DNA FP | E coli growth | LANA-H2A inh
CC(C)[C@H](NC(=O)c1c(F)cccc1F)C(=O)OCC(=O)NC(=O)NC1CCCC1 | -3 | -8% | 4.2 | 0.3 | -5.7 | 0.72 | 14*
CCOc1ccccc1C(=O)OCC(=O)Nc1ccc(N2CCCCC2)cc1 | 7 | 6% | 3.8 | 0.5 | -0.7 | 0.66 | -0.6
CN(CCOc1ccccc1)C(=O)C1CCC(=O)N(CCc2ccc(Cl)cc2)C1 (stereo not drawn) | -16 | x | 0.8 | 0.9 | 2.0 | 0.7 | -9.9
Cc1cc(OCC(=O)NC2CCN(Cc3ccccc3)CC2)c2c(C)c(C)c(=O)oc2c1 | 20 | x | -13 | 1.1 | 6.3 | 0.67 | 5.8
COc1ccc(NC(=O)C2CCCN2c2ccc(OC)c(OC)c2)cc1OC (stereo not drawn) | 5 | u | 4.1 | -0.7 | -0.3 | 0.72 | -2.5
CCOc1ccc(-n2c(O)c(/C=N/Nc3nnc(C)c(=O)[nH]3)c3ccccc3c2=O)cc1 | 3 | 9% | 12 | 0.7 | 13 | 0.68 | -2.5
O=C(NCN1C(=O)C2C3C=CC(C3)C2C1=O)OC1CCCCC1 (stereo not drawn) | 5 | 78% | 0.4 | -0.1 | -1.5 | 0.7 | -1.2
Cc1ccc(S(=O)(=O)N(CC(=O)N=Nc2c(O)[nH]c3ccccc23)c2cccc(C)c2)cc1 | -8 | x | 7.0 | 0.0 | 4.3 | 0.74 | 2.2
COc1ccccc1CNC(=O)CNC(=O)Cn1cnc2ccccc2c1=O | 0 | 9% | -0.1 | 0.0 | 1.5 | 0.8 | -2.0
OC(C#CCN1CCCCC1)c1ccccc1 (stereo not drawn) | 6 | 6% | 0.2 | 0.0 | -2.3 | 0.71 | 0.3
O=C(NNC(=S)NC(=O)c1ccccc1[N+](=O)[O-])c1ccc(Cl)cc1Cl | -3 | 30% | 4.7 | 0.9 | -5.1 | 0.64 | 0.2
COc1ccc(NC(=O)CCC(=O)N2CCOCC2)c([N+](=O)[O-])c1 | -2 | 1% | 4.7 | -0.2 | 2.9 | 0.69 | 4.8
CCCC(c1nnnn1CCOC)N1CCN(c2nc3ccccc3s2)CC1 (stereo not drawn) | -4 | x | 2.6 | 0.3 | -2.1 | 0.67 | -12
Cc1c(N(C(=O)c2cc(=O)[nH]c3ccccc23)C(C)C)c(=O)n(-c2ccccc2)n1C | 5 | 3% | 2.9 | 0.5 | 3.6 | 0.65 | 2.1
CCN1C(=O)CC(n2c(C)nc3ccccc32)C1=O (stereo not drawn) | -9 | 3% | -0.5 | 0.8 | -0.6 | 0.7 | 1.1
COCCn1nnnc1C(c1cccc(OC)c1OC)N1CCN(C(=O)c2ccco2)CC1 (stereo not drawn) | -3 | x | 1.5 | -0.1 | 2.4 | 0.67 | -1.4
CC(N)C(=O)NC(CO)C(O)C(N)C=O (stereo not drawn) | 1 | 4% | x | x | -2.4 | x | x
CCCN(CC(=O)Nc1ccccc1OC)C(=O)C1=COCCO1 | 1 | 0% | 4.9 | 0.2 | 2.6 | 0.68 | 3.2
CC(C)(C)OC(=O)C[C@H]1C/C=C\C[C@@H](CC(=O)NCCO)C(=O)N2CCC[C@H]2COC1=O | 0 | x | 1.6 | 0.1 | 3.5 | x | -2.8
CC(C)C[C@H]1CN=C(Nc2ccccc2)N1CCc1cccc(F)c1 | 0 | x | 1.4 | -1.9 | -3.6 | 0.75 | 2.7
COc1cccc(NC(=O)CN2CCN(c3ccc(F)cc3)CC2)c1 | 3 | 1% | 4.6 | 0.7 | -1.8 | 0.79 | 0.0
Cc1ccc(NC(=O)CN(Cc2ccco2)Cc2ccccc2O)cc1C | -4 | x | 1.9 | -0.2 | -2.3 | 0.65 | -1.8
CCn1c(-c2c(Cl)c(C)nn2C)n[nH]c1=S | -2 | x | 1.8 | 1.3 | 0.0 | 0.71 | 5.1
CC(C)c1ccccc1NC(=O)c1ccccc1NC(=O)C1CCCCC1 | 4 | -7% | -1.8 | 1.2 | -1.0 | 0.72 | -1.2
COC(=O)c1ccc2c(=O)n(Cc3ccc(C(=O)NCCCN4CCOCC4)cc3)c(=S)[nH]c2c1 | 2 | x | 0.4 | -0.9 | 2.2 | 0.69 | 1.3

New compounds follow
SMILES | B2AR ag | Vif A3G | UCH37 inh | A1 inh | HNF4A DNA FP | E coli growth | LANA-H2A inh
COc1cc(C(=O)N/N=C/c2cn(Cc3cccc(F)c3)c3ccccc23)ccc1O | 6 | x | x | 0.5 | -0.9 | x | -5.8
CC1=C(C(=O)OCc2ccccc2)C(c2ccc(C)o2)C2=C(CCCC2=O)N1 (stereo not drawn) | -3 | 11% | -3.9 | -0.8 | -3.2 | 0.71 | -0.7
CCN1C(=O)[C@@H]2[C@@H](c3ccc(-c4cccc(Cl)c4)cc3)N3CCC[C@@]3(C(=O)OC)[C@@H]2C1=O | 0 | x | 1.3 | 0.8 | 5.9 | x | -3.3
CC(=O)Nc1nnc(-c2ccco2)o1 | 3 | -9% | 2.6 | 0.2 | -3.0 | 0.73 | x
COc1cccc(NC(=O)Cn2c(=O)n(-c3cc(OC)c(OC)c(OC)c3)c(=O)c3ccccc32)c1 | 19 | -3% | 4.0 | -0.4 | 2.2 | 0.73 | -1.7
CCN(CC)S(=O)(=O)c1ccc(NC(=O)C(OC)c2ccccc2)cc1 (stereo not drawn) | 14 | -1% | 6.9 | 0.6 | 0.5 | 0.68 | -0.4
Cc1nc(S/C(=C/c2ccc(-c3cc(Cl)ccc3C)o2)C(=O)O)n[nH]1 | 3 | 10% | 2.9 | 0.1 | 3.2 | 0.69 | -6.8
CC1(C)CC(=O)c2sc(NS(=O)(=O)c3cc(Cl)ccc3Cl)nc2C1 | -6 | x | 15 | -0.4 | -2.7 | 0.71 | -0.4

Exported with tabs: part of the list above.
SMILES	B2AR ag	Vif A3G	UCH37 inh	A1 inh	HNF4A DNA FP	E coli growth	LANA-H2A inh
Cc1nc(S/C(=C/c2ccc(-c3cc(Cl)ccc3C)o2)C(=O)O)n[nH]1	3	10%	2.9	0.1	3.2	0.69	-6.8
CCN(CC)S(=O)(=O)c1ccc(NC(=O)C(OC)c2ccccc2)cc1 (stereo not drawn)	14	-1%	6.9	0.6	0.5	0.68	-0.4
